CapD inh = inhibitors of Bacillus anthracis CapD enzyme; purified CapD enzyme, fluorescence intensity read-out; active compounds read low; some hits fall short of the stated cut; z-score (test concentration not listed); actives 0.23% (n = 140,000);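 active = z-score under -4 in either of two replicates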;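 note: stock transfer was 100 nL into about 40 µL; score is relative to mean and spread of the plate; one replicate is shown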
AID504770 = growth inhibitors of E. coli YBA685 in a screen for V. cholerae RctB (chromosome II replication) inhibitors | E. coli YBA685 rctB-dependent plasmid, OD600 growth, 3 h; active compounds read low | actives 0.27% (n = 130,000) | AID 504770 | z-score (test concentration not listed);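 active = z-score under -2 on both plates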;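 note: wells of about 30 µL received 100 nL stock; score is relative to mean and SD of the test wells; the first replicate is given; strong numbers were not always called active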
* = called active by the depositor; nt = no result given; & = joins results of further samples.

SMILES	CapD inh	AID504770
CCNc1nc(OCC)nc(N2CCC(Cc3ccccc3)CC2)n1	-0.49	-0.1
CS(=O)(=O)NCCSCc1ccccc1	0.54	-0.4
Oc1ccccc1C1=Nc2ccccc2N=C(c2cccc(F)c2)C1	-0.055	nt
COc1ccc(CNC(=O)COC(=O)C2COc3ccccc3O2)cc1 (centres undefined)	nt	-0.5
Cc1cccc(N(CC(=O)Nc2c(C)n(C)n(-c3ccccc3)c2=O)S(C)(=O)=O)c1	0.17	-0.3
CCCCCCc1nc2ccccc2c(=O)n1NC(=O)c1c(O)c2c(n(CC(C)C)c1=O)CCCC2	0.59	nt
COc1cc(-c2nnc(CN3C(=O)C4CC=CCC4C3=O)o2)cc(OC)c1OC (centres undefined)	nt	-0.5
CC1CCN(C(c2ccc(F)cc2)c2sc3ncnn3c2O)CC1 (centres undefined)	nt	-0.1
O=c1oc2cc(O)ccc2c2c1CCCCC2	nt	-0.35
Cc1noc(C)c1S(=O)(=O)N(CC(=O)O)c1ccc2c(c1)OCO2	-0.065	0.15
O=C(NN=C1CCN(S(=O)(=O)c2ccccc2)CC1)c1ccc(F)cc1	-0.49	nt
O=C1CSCN1c1ccc(Cl)cc1	0.12	-0.8
Cn1c2c(c(=O)n(C)c1=O)C(c1ccccc1Cl)C1=C(N2)c2ccccc2C1=O (centres undefined)	0.5	nt
CCOCCOC(=O)C1=C(C)NC2(O)c3ccccc3C(=O)C12O (centres undefined)	-0.08	nt
O=C1C2=C(C(c3ccccc3)=NCCN2)C(c2ccc3c(c2)OCO3)N1c1ccccc1 (centres undefined)	-0.03	nt
O=C(c1ccco1)N1CCN(Cc2ccc3c(c2)OCO3)CC1	7.3	-0.55
CC(=O)Nc1ccc(C(=O)N2CCOCC2)cc1	nt	-0.05
N#Cc1ccc(-c2c(-n3cccc3)oc(-c3cccs3)c2C#N)cc1	69	0.3
CN(C)S(=O)(=O)N1CCc2ccccc2C1	-0.11	2
O=C(NCCO)C12CC3CC(CC(C3)C1)C2	-0.39	-0.4
O=C(/C=C/c1ccc(F)cc1)Nc1ccon1	0.08	-0.2
CCOC(=O)c1cc(-c2ccccc2)n(CCCN2CCOCC2)c1C	0.085	-0.55
CC(C)CC(=O)Nc1ccc(Cl)cn1	nt	-1.4
O=C(Cn1cc(SCc2ccccc2)c2ccccc21)N1CCCC1	-0.42	1.4
CN(C1CCN(Cc2ccccc2OCc2ccccc2)C1)S(=O)(=O)c1ccc(S(C)(=O)=O)cc1 (centres undefined)	0.43	nt
CCN(CC)S(=O)(=O)c1ccc(-n2nnc(-c3ccc(C)cc3)n2)nc1	nt	-0.1
Cc1cccc(N2CC(C(=O)NC3CCCCCC3)CC2=O)c1C (centres undefined)	nt	1.8
Nc1cccc(-c2nc3ccccc3o2)c1	47	-0.95
O=C1C(=O)N(c2nncs2)C(c2ccccc2Cl)/C1=C(/O)c1ccc(F)cc1 (centres undefined)	-0.6	nt
O=S(=O)(Oc1cc(Cl)cc(Cl)c1)c1ccc(Cl)c(Cl)c1	1	nt

Arranged by SMILES length (highest first): 16 of the compounds above.
SMILES	CapD inh	AID504770
CCCCCCc1nc2ccccc2c(=O)n1NC(=O)c1c(O)c2c(n(CC(C)C)c1=O)CCCC2	0.59	nt
O=C1C(=O)N(c2nncs2)C(c2ccccc2Cl)/C1=C(/O)c1ccc(F)cc1 (centres undefined)	-0.6	nt
CCN(CC)S(=O)(=O)c1ccc(-n2nnc(-c3ccc(C)cc3)n2)nc1	nt	-0.1
O=C(NN=C1CCN(S(=O)(=O)c2ccccc2)CC1)c1ccc(F)cc1	-0.49	nt
Cc1noc(C)c1S(=O)(=O)N(CC(=O)O)c1ccc2c(c1)OCO2	-0.065	0.15
N#Cc1ccc(-c2c(-n3cccc3)oc(-c3cccs3)c2C#N)cc1	69	0.3
CCOCCOC(=O)C1=C(C)NC2(O)c3ccccc3C(=O)C12O (centres undefined)	-0.08	nt
CCOC(=O)c1cc(-c2ccccc2)n(CCCN2CCOCC2)c1C	0.085	-0.55
Oc1ccccc1C1=Nc2ccccc2N=C(c2cccc(F)c2)C1	-0.055	nt
O=C(Cn1cc(SCc2ccccc2)c2ccccc21)N1CCCC1	-0.42	1.4
CCNc1nc(OCC)nc(N2CCC(Cc3ccccc3)CC2)n1	-0.49	-0.1
CC(=O)Nc1ccc(C(=O)N2CCOCC2)cc1	nt	-0.05
CN(C)S(=O)(=O)N1CCc2ccccc2C1	-0.11	2
O=c1oc2cc(O)ccc2c2c1CCCCC2	nt	-0.35
CS(=O)(=O)NCCSCc1ccccc1	0.54	-0.4
O=C1CSCN1c1ccc(Cl)cc1	0.12	-0.8

Additional structures:
SMILES	CapD inh	AID504770
CNS(=O)(=O)c1ccc(C(=O)NCC(=O)O)cc1	nt	0.35
COc1ccccc1N1CCN(S(=O)(=O)c2cc(C)c(F)c(C)c2)CC1	0.14	-0.5
Cc1ccnc(N=C2c3ccccc3CN2c2cc(C)ccn2)c1	0.61	-0.6
COc1ccc(C2C(C#N)=C(N)Oc3n[nH]c(C)c32)cc1CN1CCN(c2ccc(F)cc2)CC1 (centres undefined)	0.32	nt
CCCCCS(=O)(=O)N1C(=O)CSC1=Nc1ccccc1	nt	-0.8
O=C(Cn1cncn1)N/N=C/c1ccccc1OC(F)F	nt	0.05
COc1ccccc1C1C(C#N)=C(N)Oc2c1c(=O)sc1ccccc21 (centres undefined)	-0.21	-0.05
O=C(NC(=O)N1CCCCC1)c1ccc(-c2csnn2)cc1	-0.81	1.1
CC(C(=O)NCc1ccc2c(c1)OCO2)C1Sc2ccccc2NC1=O (centres undefined)	nt	0.25
CC1=NN(c2ccccc2)C(=O)/C1=C/c1ccc(-c2ccccc2)o1	0.34	0.85
Cc1ccc(Sc2ncccc2NC(=O)C(C)(C)C)cc1	0.65	0.4
C=C(C)C1CCC(C)=C1CC/C(C)=N/NC(N)=O (centres undefined)	0.065	-0.15
c1ccc(-c2cnc(CSc3nnc(C4CC4)n3C3CC3)o2)cc1	nt	-0.15
Cc1ccc(S(=O)(=O)N2CCCC2CO)cc1 (centres undefined)	-0.63	-1.1
COc1ccc(S(=O)(=O)NC2CCCCCC2)cc1	0.45	nt
O=C1N=c2ccc([N+](=O)[O-])cc2=C1c1sc(=S)n(NC(=O)c2cccnc2)c1O	-0.38	nt
CCOC(=O)c1c(NC(=O)c2cc(OC)c(OC)c(OC)c2)sc(C(=O)Nc2cc(C(F)(F)F)ccc2Cl)c1C	0.96	nt
c1cncc(CNC2C3CC4CC(C3)CC2C4)c1 (centres undefined)	nt	-0.85
CCCCN1C(=O)C2NN=C(C(=O)OC)C2C1=O (centres undefined)	0.16	-0.35
O=C(Nc1nc2ccccc2n1CCN1CCCCC1)C1CCCCC1	0.53	nt
Cc1ccc(O)c(C2=Nc3ccccc3N=C(C(F)(F)F)C2)c1	1.4	2.2
COc1ccc(-c2cc(C)no2)cc1S(=O)(=O)N1CC(=O)Nc2ccccc21	3.2	-0.15
Cc1cccn2c(=O)nc(SCC(=O)Nc3ccccc3)nc12	nt	0
COc1cc(C2N(S(=O)(=O)c3ccccc3)CCN2S(=O)(=O)c2ccc(C)cc2)ccc1O (centres undefined)	-0.37	nt
Cc1ccc(C(C(=O)NC2CCCCC2)N(C)c2ccccc2)cc1 (centres undefined)	0.45	nt
Cn1c2c(c(=O)n(C)c1=O)C(c1ccc(Cl)cc1Cl)C(C#N)=C(N)N2 (centres undefined)	nt	1.6
Fc1ccccc1NCc1nnc2n1CCCCC2	nt	-0.55
Cc1ccc(CCNC(=O)C2(NS(=O)(=O)c3cccc4cccnc34)CCCCC2)cc1	7.8	-0.85
CC(=O)c1cccc(N2C(=O)/C(=C/c3ccc(-c4cc(Cl)ccc4Cl)o3)C=C2c2ccccc2)c1	2.9	nt
COC(=O)c1ccccc1-c1ccc(/C=C(\C#N)C(=O)NCc2ccco2)o1	nt	-1.3
CCc1cccc2sc(NN)nc12	0.99	-0.5
CCCCc1ccc(NC(=O)N=S2CCN(C(=O)c3ccc(Cl)cc3)CC2)cc1	0.005	-1.4
CC1CC(CC(=O)Nc2nc(-c3ccccc3)cs2)C(=O)O1 (centres undefined)	-0.39	-0.6
O=c1c2ccccc2[nH]c(=S)n1-c1cc(C(F)(F)F)cc(C(F)(F)F)c1	-0.2	-0.55
COc1cc(-n2c(C)nc3cc(C(=O)NCCc4ccccc4)ccc32)cc(OC)c1OC	-0.5	nt
c1ccc(CN2CCN(c3nc(NCc4ccco4)c4ccccc4n3)CC2)cc1	26	nt
Clc1ccc(-c2noc(C3CCNCC3)n2)cc1	-0.32	-1.5
Cc1cnc(C(=O)NCC23CC4CC(CC(C4)C2)C3)cn1	nt	0.1
CC1(C)CC(=O)C2=C(C1)OC(c1cccs1)C(C#N)=C2N (centres undefined)	-0.41	-0.5
Cc1cc(C)c(C#N)c(SCC(=O)c2ccccc2)n1	0.42	1.2
CCn1c(O)c(C=Nc2cccc(OC)c2)c(=O)[nH]c1=S	0	0.25
O=C(Cc1ccccc1)Nc1ccc(Cc2ccncc2)cc1	0.025	1.9
COc1cc(C2C(C(=O)Nc3nc4ccccc4s3)=C(C)NC3=C2C(=O)CC(C)(C)C3)ccc1O (centres undefined)	10	nt
COC(=O)c1cc2c(=O)n3ccccc3nc2n(CCCO)c1=N	64	-0.6
O=c1oc2c(Cl)cc(Cl)cc2cc1-c1nnc(-c2ccc([N+](=O)[O-])cc2)o1	0.17	nt
CCOC(=O)CSc1nc(N2CCCCC2)c2c(c1C#N)CCCC2	0.22	nt
O=C(/C=C1/Sc2ccccc2N(Cc2ccccc2F)C1=O)N1CCCC1	0.5	-0.2
CCOC(=O)CNC(=O)c1cc([N+](=O)[O-])ccc1Oc1ccc(OC)cc1	0.35	nt
Cc1cn2c(=O)c(C(=O)NCC3CCCC(CNC(=O)c4cnc5sc(C)cn5c4=O)C3)cnc2s1 (centres undefined)	nt	0.9
COc1cccc(NS(=O)(=O)c2cc(C(=O)N3CCCCC3)ccc2NCCc2ccc(Cl)cc2)c1	1.2	nt
CC(CS(=O)(=O)c1ccc2c(c1)NC(=O)C(C)S2)C(=O)N1CCc2ccccc21 (centres undefined)	-0.05	1
FC(F)(F)c1cc(-c2csnn2)cc(C(F)(F)F)c1	-0.77	2.4
Nc1ccc(-c2cc(C(=O)O)c3ccccc3n2)cc1	-1.3	-0.65
CC1(c2ccccc2)CC(O)CC(c2ccccc2)N1 (centres undefined)	1.4	nt
C/C(=N/NC(=O)c1sc(NS(=O)(=O)c2ccc(C)cc2)nc1C)c1sc(N)nc1C	-0.91	0.45
CC(=O)OC1CCC2C3CCc4cc(O)ccc4C3CCC12C (centres undefined)	nt	0.8
CCOC(=O)c1cc(-c2csc(Nc3ccccc3Cl)n2)on1	9.2	-0.25
O=C1CC2(CCCC2)C(=O)N1c1ccc(S(=O)(=O)N2CCSCC2)cc1Cl	0.27	0.4
COC(=O)c1c(C(=O)OC)c(-c2ccc(F)cc2)n2c1CS(=O)C2 (centres undefined)	-0.42	nt
CNc1c(NC(=O)CC(=O)OC)c(=O)oc2ccccc12	0	-1.1
(cont.)
SMILES	CapD inh	AID504770
O=C(Nc1ccccc1C(=O)NCCN1CCOCC1)C1=CSCCO1	0.05	0.3
CC1CCc2cc(F)ccc2N1C(=O)CN1C(=O)c2ccccc2C1=O (centres undefined)	-0.21	-1.2
Cc1cc(C)c2c(=O)n(-c3ccccc3)[nH]c2n1	-0.52&-1.9	0.2&-0.2
COc1cc(-c2noc(CCCC(=O)Nc3ccccc3C(F)(F)F)n2)cc(OC)c1OC	-0.28	-0.6
COCCN(Cc1ccccc1)C(=O)C1CC(=O)N(c2cc(C)ccc2OC)C1 (centres undefined)	nt	-0.2
Cc1ccc(O)c(C(=O)c2cnc3[nH][nH]c(=O)c3c2)c1	nt	0
O=C(Nc1cc(C(F)(F)F)ccc1N1CCOCC1)c1cccs1	0.33	0.1
N#Cc1cc2c(=O)n3ccccc3nc2n(C2CCCC2)c1=N	0.19	-0.35
O=C(Nc1nnc(-c2ccccc2)o1)c1ccccc1	nt	0.55
COC(=O)/C(=C\Nc1ccc(Cl)cc1Cl)NC(=O)c1ccccc1	-1.4	nt
CCCc1cc2c(=O)c(-c3ccc(C(=O)OCC)o3)c(C(=O)OCC)oc2cc1OC(C)=O	-1.1	nt
CC(C)NC(=O)NC(=O)CN1c2cccc3cccc(c23)S1(=O)=O	nt	-0.45
CN1CCN(c2ccc(/C=C3\Sc4ccccc4C3=O)cc2[N+](=O)[O-])CC1	-0.17	nt
CCOC(=O)c1sc2nc(SCC(=O)NCc3ccco3)n(Cc3ccccc3Cl)c(=O)c2c1C	18	nt
CC1CC(C)CN(C(=O)CN2C(=O)c3ccccc3S2(=O)=O)C1 (centres undefined)	1	0.45
O=C(Nc1ccc2c(c1)OCC(=O)N2Cc1ccccc1F)NC1CCCCC1	nt	-0.45
N#CCNC(=O)COc1ccc(Cl)cc1	0.22	0.35
COC(=O)c1ccsc1NC(=O)c1ccsc1NC(=O)c1cccnc1	1.1	-0.8
O=C(NCCc1ccncc1)c1ccc([N+](=O)[O-])cc1	-0.79	nt
CCOc1ccc2sc(C=NC(C)CC)c(O)c2c1 (centres undefined)	-1.9	-0.15
Cc1cc(Cl)cc2c1C(=O)/C(=C\c1cccnc1)S2	0.58	0.55
COc1cc2nc(C3CCC3)n(NC(=O)c3ccco3)c(=O)c2cc1OC	nt	0.05
O=c1oc2ccccc2cc1-c1nc(-c2ccc(Br)cc2)cs1	0.71	nt
O=C1CCC(=O)N1C1CCN2CCCc3cccc1c32 (centres undefined)	8.4	nt
CCc1nc2cc(Cl)c(Cl)cc2[nH]1	0.085	-1.2
O=C(CCc1nnc2ccc(N3CCC4(CC3)OCCO4)nn12)Nc1ccc2c(c1)OCO2	-0.83	0.55
CSc1cccc(NC(=O)c2c(-c3ccccc3Cl)noc2C)c1	-0.12	nt
N#Cc1cccn1Cc1ccccc1N	-0.54	-0.8
O=C(N=Nc1c(O)[nH]c2ccccc12)c1cccc(Br)c1	-0.41	2.5
O=C(/C=N/O)Nc1ccccc1Cl	-0.37	nt
